# Source: PubChem
# eIF4H inh – inhibitors of RNA binding by human eIF4H; Q15056; eIF4H fluorescence polarization binding assay; inhibition, % at 35 µM; 290,000 compounds, 0.94% hits;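 active = 50% or more with normal probe brightness, or confirmed in later tests; inconclusive = above 50% with abnormal brightness, or retests that disagree; inactive = below 50% or failed in later tests; about a fifth of its hits are not listed in these tables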;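 note: calls also rest on retests at 20 µM and on dose response follow-up; 0% = protein and probe with vehicle and 100% = probe without protein; strong numbers were not always called active; many hits fall short of the cut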
# Env fusion inh – blocks HIV Env-driven cell-cell fusion; HeLa-JRFL Env/CEM21 cell fusion, luciferase; inhibition, % at 12.3 µM; 360,000 compounds, 1.1% hits;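 active = mean replicate inhibition score of at least 50 and every replicate individually at or above 50; inconclusive = only one of the two criteria met; inactive = mean below 50 and not all replicates reaching 50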;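 note: 0% = plate neutral controls and 100% = maraviroc near 300 nM; one replicate is shown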
# CSC inhib – blocks cancer stem cells. cancer stem cell-like cells viability, luminescence. inhibition, % at 7.5 µM. 300,000 compounds, 1.1% hits. AID 2717;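 active = mean at 75% or more and at least half the replicates too; inconclusive = mean and replicates disagree; tested in HMLE shEcad cells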;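 note: 0% = median of negative and 100% = median of positive control wells; the first replicate is given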
# PABP polyA inh – blocks human PABP binding to poly(A) RNA; P11940; fluorescence polarization; inhibition, % at 35 µM; 290,000 compounds, 1% hits; AID 2014;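 active = 50% or more with normal probe brightness, or confirmed in later tests; inconclusive = above 50% with abnormal brightness, or retests that disagree; inactive = below 50% or failed in later tests; about a fifth of its hits are not listed in these tables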;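 note: calls also rest on retests at 20 µM and on dose response follow-up; controls were probe without protein and protein plus probe with vehicle; some compounds called inactive have numbers as strong as hits; many hits fall short of the cut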
# Target sequence (P11940 whole entry, looked up): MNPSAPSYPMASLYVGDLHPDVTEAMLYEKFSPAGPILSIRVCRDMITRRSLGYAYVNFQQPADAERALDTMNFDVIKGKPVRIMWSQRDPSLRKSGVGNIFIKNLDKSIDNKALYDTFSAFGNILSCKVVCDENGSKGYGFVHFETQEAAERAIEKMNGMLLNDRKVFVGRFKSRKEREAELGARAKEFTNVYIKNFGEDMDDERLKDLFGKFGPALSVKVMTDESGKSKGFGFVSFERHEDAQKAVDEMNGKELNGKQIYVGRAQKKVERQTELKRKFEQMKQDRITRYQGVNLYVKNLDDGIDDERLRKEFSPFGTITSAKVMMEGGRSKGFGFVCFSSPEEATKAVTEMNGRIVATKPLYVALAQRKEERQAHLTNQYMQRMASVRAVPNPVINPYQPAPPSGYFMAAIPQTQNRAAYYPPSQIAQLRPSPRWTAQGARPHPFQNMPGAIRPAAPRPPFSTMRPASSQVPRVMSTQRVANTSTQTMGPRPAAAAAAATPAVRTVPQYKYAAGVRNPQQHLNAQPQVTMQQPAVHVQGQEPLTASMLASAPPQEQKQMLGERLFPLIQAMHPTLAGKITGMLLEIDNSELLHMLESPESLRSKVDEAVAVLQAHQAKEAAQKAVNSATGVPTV
# Rce1 inhib – yeast Ras-converting enzyme inhibition | Q03530 | yeast membranes, quenched prenylated peptide cleavage fluorescence | calls only | 290,000 compounds, 0.27% hits | AID 2563;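 active = fall in fluorescence gain of 50% or more versus controls, with final raw signal at or below 3038400; inconclusive = same 50% fall but final raw signal above 3038400; inactive = fall in fluorescence gain under 50%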;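 note: plate controls were neutral control wells for no effect and wells lacking membranes for full effect; tested at 10 µM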
# MT1-MMP act inh – MT1-MMP (human) activation inhibition | P50281 | HT1080 RFP-PRO-GFP cells, GFP/RFP ratio fluorescence, overnight; percent of plate control window, DMSO zero | GFP/RFP ratio change, % at 20 µM | 360,000 compounds, 0.061% hits | AID 651647;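 active = GFP/RFP ratio change of at least 30% with cell ATP level not reduced by more than half and red fluorescence within 50% of control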; note: strong numbers were not always called active
#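 Read-out: GFP/RFP fluorescence ratio; Test system: RFP-PRO-GFP reporter HT1080 cells; Compound dosing: single-point 20 µM compound, 1% DMSO; Times: overnight compound exposure at 37 °C.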
# UUG fidelity – yeast start codon fidelity modulation. S. cerevisiae UUG-firefly luciferase reporter, luminescence/redox ratio. activity score, % at 18.7 µM. 350,000 compounds, 0.13% hits. AID 602363;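 active = replicate mean at a twofold rise or more, about +100% in these data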;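 note: firefly luciferase made from a UUG start codon reports start codon fidelity; reporter light over untreated wells divided by growth signal over untreated wells; some hits fall short of that in this replicate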
# eIF4H inh retest – further read-out of eIF4H inh, marked with its call; inhibition, %; compound at 20 µM; confirmation average;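 mean of two retest wells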
# PABP polyA inh retest – second read-out of PABP polyA inh, no call of its own (marks repeat the call); inhibition, %; compound at 20 µM; confirmation repeats;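 mean of two retest wells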
# MT1-MMP act inh RFP – second read-out of MT1-MMP act inh, no call of its own (marks repeat the call); RFP signal change, %; measured here: RFP expression control read;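 0 = vehicle wells; hits needed this value within 50% of zero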
# Numbers without * were called inactive; i = inactive; u = inconclusive; x = no result given. Not all compounds are listed. The share of hits here may be higher or lower than overall.
SMILES,eIF4H inh,Env fusion inh,CSC inhib,PABP polyA inh,Rce1 inhib,MT1-MMP act inh,MT1-MMP act inh RFP,UUG fidelity,others
COc1cc(C(=O)N/C(=C\c2cn(C)c3ccccc23)C(=O)N2CCOCC2)cc(OC)c1OC,-4.0,-4.6,-11.0,-4.1,i,1.4,5.3,-13.5,
O=C(COC(=O)c1ccc(Cl)nc1)Nc1ccc2c(c1)CCC2,x,x,10.0,x,x,0.3,4.0,-8.3,
CCC(CC)C(=O)Nc1cccc(C(=O)c2ccccc2)c1,-2.5,-30.3,4.7,-9.3,i,4.4,-0.4,-19.6,
NS(=O)(=O)c1ccc(-c2ccc(/C=C3\NC(=S)NC3=O)o2)cc1,78.8*,-11.3,-5.4,25.1,i,-4.7,4.2,-4.6,eIF4H inh retest=95.9*;PABP polyA inh retest=33.6
CC1(C)CC(=O)C2=C(C1)OC(N)=C(C#N)C2c1ccc[nH]1 (stereo unspecified),35.9,-6.4,3.2,38.0,i,-5.1,18.5,-5.1,
Cc1nc2sc3c(c2c(=O)n1/N=C/c1cccnc1)CCCC3,-1.6,-3.9,-3.2,-12.1,i,-3.0,-1.7,-9.0,
O=C(CCS(=O)(=O)c1ccc(Cl)cc1)NCCN1C(=O)S/C(=C\c2ccccc2F)C1=O,-7.4,-23.6,-7.0,4.9,i,-3.8,-9.0,x,
CCOc1ccc(N(CC(=O)N2CCN(c3ccccc3OC)CC2)S(=O)(=O)c2ccc(C)cc2)cc1,1.5,20.4,x,4.2,i,-1.5,-3.8,1.1,
CCn1c(SCCN2CCOCC2)nc2c1c(=O)n(C)c(=O)n2C,3.5,1.2,-9.6,-4.0,i,-4.2,-1.4,-11.1,
Cc1cc(=O)[nH]c(Nc2cccc(Br)c2)n1,1.1,28.1,-26.6,-14.0,i,-6.2,-6.8,-5.7,
COc1cccc(/C=C/C(=O)OCC(=O)NC2CCCC2)c1,x,4.9,x,x,x,2.7,3.0,-3.5,
COc1cc2c(cc1OC)C1(Nc3c-2c(-c2ccccc2)nn3-c2ccccc2)C(=O)Nc2ccccc21 (stereo unspecified),-4.8,x,1.0,0.2,i,-11.4,-9.1,-33.9,
COc1ccc(N2CCN(CC(=O)NCc3ccccc3)CC2)cc1,8.3,0.1,-4.7,-2.5,i,0.4,-0.3,-14.0,
COc1ccc(CNC(=O)O[C@H]2Cn3c(=O)ccc(=O)n3[C@@H]3CN(S(=O)(=O)c4ccc(C)cc4)C[C@]23O)cc1OC,x,-24.8,x,x,x,1.5,6.4,10.0,
C=CCOc1ccc(/C(O)=C2/C(=O)C(=O)N(CCCn3ccnc3)C2c2cccs2)cc1 (stereo unspecified),3.4,x,-7.0,-10.2,i,-2.7,1.6,-18.6,
Cc1ccc(NC(=O)c2ccc(C)c(NC3=NC4CS(=O)(=O)CC4S3)c2)cc1C (stereo unspecified),-9.8,16.6,x,-5.6,i,0.8,3.5,-9.2,
Cc1cc(C)c(S(=O)(=O)NCC(CCC(=O)O)C(F)(F)F)c(C)c1 (stereo unspecified),3.2,16.5,-9.0,-4.2,i,-0.4,2.5,-4.1,
COc1ccc(C(=O)NC(C)c2nccs2)cc1OC1CCN(C(C)C)CC1 (stereo unspecified),8.5,-0.5,-2.5,1.2,i,1.5,5.0,-25.7,
CN(CCC#N)C(=O)COC(=O)[C@H](Cc1ccccc1)N1C(=O)c2ccccc2C1=O,-2.7,9.2,-0.2,8.2,i,-5.4,-2.9,0.4,
CC(C(=O)OCC(=O)Nc1ncc(Cl)cc1Cl)N1C(=O)c2ccccc2C1=O (stereo unspecified),-0.5,x,-6.2,2.9,x,0.7,4.6,-2.9,
CC1CCN(S(=O)(=O)c2ccc(C(=O)N(C)C3CCS(=O)(=O)C3)cc2)CC1 (stereo unspecified),x,6.0,1.4,x,i,0.3,-0.4,-16.9,
Cc1[nH]c2ccccc2c1/C=N/NC(=O)c1cccc([N+](=O)[O-])c1,15.0,1.9,12.2,7.5,i,0.1,-5.3,x,
Nc1ccc(S(=O)(=O)NCC(=O)OCCOc2ccccc2)cc1[N+](=O)[O-],x,-7.7,-12.3,x,i,0.0,1.0,-2.0,
CC(C)CNC(=O)C1(C)CCCN1C(=O)c1c(Cl)cccc1Cl (stereo unspecified),x,-7.0,x,x,x,3.2,3.9,-4.8,
Cc1ccc(-c2c(C(=O)N/N=C/c3ccsc3)nnn2-c2nonc2N)cc1,0.9,-4.1,-10.0,-0.8,i,2.2,4.1,-11.8,

# Further entries
SMILES,eIF4H inh,Env fusion inh,CSC inhib,PABP polyA inh,Rce1 inhib,MT1-MMP act inh,MT1-MMP act inh RFP,UUG fidelity,others
CC(C)(C)C(=O)N1N=C(c2cccc(NS(C)(=O)=O)c2)CC1c1cccs1 (stereo unspecified),-0.2,-16.8,x,-6.6,i,-1.8,2.0,x,
O=C(NNS(=O)(=O)c1ccc(F)cc1)C1CCCCC1,-5.1,6.0,-1.7,-0.9,i,0.7,2.4,-10.1,
Cc1ccnc(NS(=O)(=O)c2ccc(NC(=O)c3ccccc3F)cc2)n1,5.6,-7.7,-3.5,1.1,i,1.3,1.1,-6.1,
CCN(CC)S(=O)(=O)c1cccc(NC(=O)/C=C/c2cccc([N+](=O)[O-])c2)c1,-5.4,21.6,0.6,-4.7,i,-4.0,-16.8,-8.0,
Cc1cccc(C2=NN(c3ccccc3)[C@@H](C(=O)N3CCOC3=O)[C@@H]2C)c1,x,-40.2,x,x,x,-0.6,1.0,-9.7,
COc1ccc(F)c(CN2CCC(N3CCC(C(=O)N4CCOCC4)CC3)CC2)c1,4.3,4.4,5.0,2.2,i,4.3,3.9,x,
CC(=O)c1ccc(C(=O)N2CCC(n3nccc3NC(=O)C3CC3)CC2)cc1,-10.6,x,-8.9,-3.1,i,0.6,2.4,-3.4,
CCN(CC(=O)Nc1ccc(OC)cc1)C(=O)c1ccc(N2C(=O)CCC2=O)cc1,x,x,4.1,x,x,-1.2,1.0,-7.6,
CCn1c(SCC(=O)N/N=C/C=C/c2ccco2)nc2ccccc21,u,-12.9,-0.3,-9.5,i,-4.9,1.7,x,PABP polyA inh retest=30.9
CCOC(=O)C1CCCN(c2nnnn2-c2ccccc2)C1 (stereo unspecified),0.4,x,0.0,-1.1,i,4.2,1.3,6.8,
CC(C)(C)OC(=O)C[C@@H]1C/C=C\C[C@H](CC(=O)N(CCO)Cc2ccccc2)C(=O)N[C@@H](c2ccccc2)COC1=O,x,x,-15.2,x,x,-6.6,-2.8,13.8,
COCc1cc(C)n(CC(=O)Nc2ccccc2C(=O)OC)c(=O)c1C#N,7.9,-73.6,2.3,11.3,i,2.4,3.6,-17.8,
O=c1[nH]ncn1-c1ccccc1C(F)(F)F,-0.8,-42.5,-6.3,-0.4,i,4.6,2.4,-8.1,
O=S(=O)(NCCO)c1cccc2cccnc12,5.1,6.7,10.2,4.8,i,-1.8,2.8,-10.5,
CC(=O)Nc1ccc(NS(=O)(=O)c2ccc3ccccc3c2)cc1,7.0,-1.7,-9.7,1.6,i,-2.2,-3.9,-8.8,
COc1ccc(NC(=O)CSc2cc(C(=O)c3nccn3C)c3ccccc3n2)cc1,-6.5,-5.7,2.3,-9.3,i,-4.7,-9.8,x,
Cc1ccc(C(=O)OCc2nnc(-c3ccccc3)o2)cc1S(=O)(=O)N1CCOCC1,x,-3.2,-6.8,x,i,0.7,0.3,-8.1,
Cc1ccc2nc(SC(C)C(=O)NCc3ccco3)[nH]c2c1 (stereo unspecified),6.0,x,-13.3,6.0,i,0.0,3.0,x,
CCCOc1ccc(C(=O)Nc2ccc(CN3CCOCC3)cc2)cc1,-0.3,5.2,-5.0,12.1,i,6.3,-6.9,-0.8,
CCCN(CCC)S(=O)(=O)c1cccc(C(=O)Nc2ccc3c(c2)OCO3)c1,-2.1,39.4,-7.2,-1.0,i,2.3,-7.2,-18.6,
COc1cc(-c2[nH]ncc2CN2CCN(Cc3cccs3)CC2)cc(OC)c1OC,3.1,5.9,-6.6,-2.5,i,-1.2,-2.4,-8.2,
CCN(CCCNC(=O)COc1cc(=O)n(C)c2ccccc12)c1cccc(C)c1,-5.7,-57.6,-15.4,4.2,i,1.4,-4.3,-10.6,
Cc1ccc(S(=O)(=O)N2CCC(=O)N(CCOC(=O)NCc3ccccc3)CC2)cc1,0.1,9.4,14.1,1.1,x,x,x,x,
Cc1cccc(COc2ccc(/C=C3/C(=O)N(C)C(=S)N3C)cc2)c1,4.9,17.6,0.9,-6.4,i,-2.0,-2.8,-9.7,
COc1ccccc1NC(=O)c1cc(-c2ccc(OC)c(OC)c2)nc2ccccc12,-11.6,10.8,x,6.3,i,-5.8,0.0,3.4,

# Following part:
SMILES,eIF4H inh,Env fusion inh,CSC inhib,PABP polyA inh,Rce1 inhib,MT1-MMP act inh,MT1-MMP act inh RFP,UUG fidelity,others
COc1ccc(C(C(=O)NC2CCCCC2)N(Cc2ccco2)C(=O)c2ccccn2)c(OC)c1 (stereo unspecified),-1.8,9.6,-6.8,12.0,x,1.4,2.0,-2.9,
Cc1onc(-c2ccccc2)c1C(=O)N1CCN(CCc2ccccc2)CC1,1.1,x,-6.9,-8.7,i,4.0,4.7,-5.7,
CCCCOC(=O)NC1CCS(=O)(=O)C1 (stereo unspecified),-1.9,4.3,-9.2,-2.4,i,-8.7,-14.5,-10.6,
CC(C)C(NC(=O)C1CCCCC1)C(=O)Nc1ccccn1 (stereo unspecified),-4.0,x,6.7,-9.6,i,-5.4,-4.0,-11.1,
C/C(CC1CC(COCC(C)C)OC1=O)=N\NC(N)=S (stereo unspecified),-7.0,x,-16.0,-0.5,i,1.5,1.5,x,
Cc1cccc(NC(=S)NCc2ccco2)n1,-0.9,-11.5,-7.0,1.4,i,-3.6,-3.1,-21.7,
C#CCn1c(S(=O)(=O)Cc2ccccc2Cl)nc(-c2ccccc2)c1-c1ccccc1,-12.9,79.1*,13.7,-12.3,i,-4.9,-4.8,-9.7,
COC(=O)/C=C1\SC(=NC(=O)c2cccc([N+](=O)[O-])c2)NC1=O,6.5,-22.9,x,21.5,i,-4.4,-2.1,-7.4,
Cc1noc(C)c1C(=O)OCC(=O)Nc1ccc(N2CCOCC2)cc1,x,x,-21.6,x,x,9.4,-2.3,-9.2,
Clc1cccc(/C=N/Nc2ncnc3ccccc23)c1,-2.3,-187.7,-1.6,-10.6,i,0.5,3.1,-20.6,
CCc1nnc(NC(=O)c2ccc3c(=O)n4c(nc3c2)CCC4)s1,x,-2.0,x,x,x,0.1,2.6,-15.6,

# Looked up one by one from above:
SMILES,eIF4H inh,Env fusion inh,CSC inhib,PABP polyA inh,Rce1 inhib,MT1-MMP act inh,MT1-MMP act inh RFP,UUG fidelity,others
CC(C)C(NC(=O)C1CCCCC1)C(=O)Nc1ccccn1 (stereo unspecified),-4.0,x,6.7,-9.6,i,-5.4,-4.0,-11.1,
C#CCn1c(S(=O)(=O)Cc2ccccc2Cl)nc(-c2ccccc2)c1-c1ccccc1,-12.9,79.1*,13.7,-12.3,i,-4.9,-4.8,-9.7,
CCc1nnc(NC(=O)c2ccc3c(=O)n4c(nc3c2)CCC4)s1,x,-2.0,x,x,x,0.1,2.6,-15.6,
Cc1noc(C)c1C(=O)OCC(=O)Nc1ccc(N2CCOCC2)cc1,x,x,-21.6,x,x,9.4,-2.3,-9.2,
COC(=O)/C=C1\SC(=NC(=O)c2cccc([N+](=O)[O-])c2)NC1=O,6.5,-22.9,x,21.5,i,-4.4,-2.1,-7.4,
